GIV Gai3 FP = inhibitors of GIV peptide binding to Galpha-i3, primary screen, biochemical, fluorescence polarization, FITC-GIV GBA peptide, rat Galphai3; Guanine nucleotide-binding protein G(i) subunit alpha-3 (Rattus norvegicus), P08753; 90 min; stronger effect = lower value; scaled: aluminum fluoride 0%, vehicle 100%; percent of control (FP), % (concentration not given with the values); hit rate 0.42% among 210,000;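 active = replicate mean at 85% of control or lower, very high polarization wells dropped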;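 also: wells of about 15 µL received 100 nL stock; the first replicate is given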
Target sequence (P08753 whole entry, looked up): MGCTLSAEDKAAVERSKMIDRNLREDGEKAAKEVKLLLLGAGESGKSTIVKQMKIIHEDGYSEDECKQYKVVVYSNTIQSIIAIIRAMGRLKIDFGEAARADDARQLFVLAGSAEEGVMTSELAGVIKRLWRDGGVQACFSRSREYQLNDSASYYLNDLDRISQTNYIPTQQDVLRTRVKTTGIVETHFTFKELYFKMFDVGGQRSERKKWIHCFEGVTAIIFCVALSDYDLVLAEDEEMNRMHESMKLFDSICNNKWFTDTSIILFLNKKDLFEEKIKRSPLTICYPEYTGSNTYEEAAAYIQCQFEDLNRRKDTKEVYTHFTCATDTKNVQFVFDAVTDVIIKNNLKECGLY
Sa growth inh = S. aureus growth inhibition at 42 and 30 °C, primary screen, LtaS inhibitor project, RN4220, two temperatures; OD600, 20 h, 42 °C; stronger effect = lower value; hit rate 0.53% among 170,000; relative growth, % (test concentration not listed);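 active = growth at 42 °C up to 50% and 20 or more points under that at 30 °C, or under 10% at both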;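 also: 300 nL library stock went into each well; scaled to the means of positive and negative controls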
HCMV UL50-53 inh = inhibitors of HCMV UL50-UL53 interaction, biochemical, HTRF; hit rate 0.15% among 190,000; AID 1918969, 2023; inhibition, % (no concentration beside the values); normalized percent inhibition; HCMV UL50-UL53 nuclear egress complex (human cytomegalovirus);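 active = both replicates at 50% or more, plus weaker picks with an unusually low signal ratio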;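 also: stock transfer was 100 nL into about 20 µL; 0% = negative control wells and 100% = wells with untagged competitor protein; inactives centre near -12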
Sa growth inh second temp = second read-out of Sa growth inh, no call of its own (marks repeat the call); relative growth, %; measured here: growth at 30 °C;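 optical density after 20 h as mean of two plates; 100% = untreated growth and lower means inhibition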
Starred values were filed as active, the others as inactive; / = not tested or not shown; & = joins results of further samples. An excerpt; rates above refer to the full screens.

| canonical_smiles | GIV Gai3 FP | Sa growth inh | Sa growth inh second temp | HCMV UL50-53 inh |
| --- | --- | --- | --- | --- |
| CCC(C)[C@H]1O[C@]2(C=C[C@@H]1C)C[C@@H]1C[C@@H](C/C=C(\C)[C@@H](OC3C[C@H](OC)C(O[C@H]4C[C@H](OC)[C@@H](O)[C@H](C)O4)[C@H](C)O3)[C@@H](C)/C=C/C=C3\CO[C@@H]4[C@H](O)C(C)=C[C@@H](C(=O)O1)[C@]34O)O2 (stereo not given in full) | / | 89 | 84 | -36 |
| Cc1cccc(-n2c(/C=C/c3cccc4ccccc34)nc3ccccc3c2=O)c1 | 102 | 90 | 83 | / |
| CCN1C(=O)NC(=O)/C(=C\c2cn(CC(=O)O)c3ccccc23)C1=O | 110 | 91 | 90 | -39 |
| CN1CCN(c2cc(Cl)c(C#N)cc2F)CC1 | 102 | 100 | 93 | -13 |
| C/C=C/c1ccc2c(c1)OCO2 | 99 | 102 | 85 | -15 |
| COc1ccc(C(CN)CC(=O)O)cc1 (stereo not given) | 101 | 89 | 91 | -6 |
| Cc1nn(-c2ccccc2)c2c1P(=S)(N1CCOCC1)N(C)C(c1ccccc1)=N2 (stereo not given) | / | 93 | 89 | -19 |
| Cc1cccc(-n2c(/C=C/c3ccccc3O)nc3ccccc3c2=O)c1 | 106 | 94 | 83 | -47 |
| CCCOc1ccc(CCN)cc1Cl | 101 | 104 | 120 | -15 |
| CC1(C)C2CC=C(CN3CCC(O)CC3)C1C2 (stereo not given) | 105 | 98 | 98 | -20 |
| CC(=O)N1N=C2C3CCN(CC3)[C@@H]2[C@@H]1c1ccc(C)cc1 | 100 | / | / | -19 |
| CC(CO)NC(=O)C1C=C2c3cccc4[nH]cc(c34)C[C@H]2N(C)C1 (stereo not given in full) | / | 97 | 96 | -17 |
| COc1ccc2c(c1)c(C(=O)N1CCN(C)CC1)c(C)n2C | 102 | 100 | 92 | 1 |
| CCCCn1c(=O)c(C(=O)NC)c(O)c2ccccc21 | 106 | 117 | 90 | -8 |
| O=C1NC(=O)C(=CC2CC=CCC2)C(=O)N1 (stereo not given) | 100 | 95 | 89 | 16 |
| O=C(Nc1nc2ccc3ccccc3c2s1)c1ccc(S(=O)(=O)N(CCCl)CCCl)cc1 | 99 | / | / | -4 |
| CCOC(=O)C1=C(N)Oc2c(c(=O)oc3ccccc23)C1c1cccc(Cl)c1 (stereo not given) | 98 | / | / | -8 |
| Cc1cccc(-n2c(C)nc3cc(C(=O)N4CCC5(CC4)OCCO5)ccc32)c1 | 104 | 97 | 81 | 5 |
| COC(=O)CN1C(=O)CN=C(c2ccccc2Cl)c2cc(Br)ccc21 | 107 | / | / | 6 |
| Cc1ccc(O)c(CN2CCN(c3ccccc3)CC2)c1 | 103 | 95 | 90 | -5 |

Some entries already given, limited to HCMV UL50-53 inh.
SMILES	HCMV UL50-53 inh
CC(CO)NC(=O)C1C=C2c3cccc4[nH]cc(c34)C[C@H]2N(C)C1 (stereo not given in full)	-17
O=C(Nc1nc2ccc3ccccc3c2s1)c1ccc(S(=O)(=O)N(CCCl)CCCl)cc1	-4

Continuation.
| canonical_smiles | GIV Gai3 FP | Sa growth inh | Sa growth inh second temp | HCMV UL50-53 inh |
| --- | --- | --- | --- | --- |
| COC(=O)c1cn(Cc2ccccc2C#N)c2ccccc12 | 105 | 104 | 75 | -11 |
| Cc1ccc(NC(=O)CN2C(=O)CN=C(c3ccccc3)c3ccccc32)cc1Cl | 105 | 93 | 101 | / |
| Cc1ccc(NC2=NC(C)(C)CS2)cc1 | / | 102 | 89 | 4 |
| O=C(NCCCN1CCCC1=O)c1cc2cccnc2n(Cc2ccccc2)c1=O | 110 | / | / | -32 |
| COC(=O)C1=C(N)OC(C)=C(C(C)=O)C12C(=O)Nc1ccc(Br)cc12 (stereo not given) | 108 | / | / | -17 |
| CCc1[o+]c(-c2ccccc2)cc2c1CCCC2 | / | 114 | 87 | -6 |
| CC12CCC3C(CCC4=CC(=O)CCC43C)C1CCC2=O (stereo not given) | 110 | 109 | 83 | -32 |
| Nc1ccc(C2(c3ccc(N)cc3)CCCCC2)cc1 | / | 89 | 77 | -36 |
| OC(Cc1ccccc1)(Cc1ccccc1)C1CN2CCC1CC2 (stereo not given) | 101 | 118 | 94 | / |
| FC(F)(F)c1ccc(NC2=NCCCS2)cc1 | 102 | 100 | 99 | -4 |
| CCOC(=O)C1=C(c2ccccc2)OC(N)=C(C#N)C12C(=O)Nc1ccccc12 (stereo not given) | 102 | / | / | -12 |
| O=C(O)C1C2CC3CC(C2)CC1(n1ncc(N2CCOCC2)c(Cl)c1=O)C3 (stereo not given) | 102 | 115 | 85 | / |
| CN1CCN(Cc2ccccc2)CC1 | 104 | 109 | 101 | 5 |
| CC(C)CC(N(C)C)C1(c2ccc(Cl)cc2)CCC1 (stereo not given) | 102 | 94&96&93&101 | 89&97&82&96 | -42&-17&1&-76 |
| CCSCc1cc(OC(=O)N(C)C)nc(-c2ccc(C(F)(F)F)cc2)n1 | 99 | 110 | 79 | 0 |
| C1=CCC2CCC(C1)N2 | 99 | 79 | 80 | / |
| CNc1nc(N2CCN(C)CC2)c2cnn(C)c2n1 | 108 | / | / | 9 |
| C[C@@H]1O[C@@H](O[C@H]2C[C@@H](O)[C@]3(CO)C4C(CC[C@]3(O)C2)[C@@]2(O)CC[C@H](C3=CC(=O)OC3)[C@@]2(C)C[C@H]4O)[C@H](O)[C@H](O)[C@H]1O (stereo not given in full) | / | 86 | 87 | -35 |
| COc1cc2c3c(c1OC)-c1cc(O)ccc1CC3NCC2 (stereo not given) | 105 | 92 | 79 | / |
| CCCC12CN3CC(CCC)(CN(C1)C3c1ccccn1)C2=O (stereo not given) | 96 | 84 | 82 | -28 |
| O=C1NC(=S)N(c2ccccc2)C(=O)/C1=C/C=C/c1ccco1 | 218 | 80 | 76 | / |
| OC(CNC1CCCC1)C(F)(F)F (stereo not given) | 96 | / | / | -12 |
| CCOC(=O)c1c(C)n(Cc2ccccc2)c2ccc(OCC(O)CN3CCCCC3)cc12 (stereo not given) | 101 | / | / | -8 |
| Cc1cc(O)c(CN2CC=C(c3ccccc3)CC2)cc1C(C)C | / | 104 | 100 | -10 |
| Cc1nc2cc(Cl)ccc2c(=O)n1-c1ccncc1 | 112 | 97 | 102 | / |
| N#Cc1cccs1 | / | 88 | 89 | -5 |
| O=C(CNC1CCCCC1)c1ccc(O)c(O)c1 | 104 | 82 | 74 | -19 |
| CN1CCSC1=Nc1ccc(OC(F)F)cc1 | / | 83 | 88 | -6 |
| COCc1cc(OC(=O)N(C)C)nc(-c2ccccc2)n1 | 96 | 113 | 91 | -3 |
| CN1C2CCC1CC(OC(=O)c1ccc(Cl)cc1)C2 (stereo not given) | 106 | 102 | 100 | 10 |
| O=c1[nH]c2ccccc2c(=O)n1-c1ccccc1 | 100 | 97 | 86 | -5 |
| O=C(O)CP(=O)(O)c1ccc(Cl)cc1 | 100 | 91 | 84 | / |
| CCN(CC)Cc1c[nH]c2ccccc12 | 102 | 114 | 94 | -11 |
| Cc1ccc(OCC(=O)Nc2ccc(Cl)cc2C(=O)c2ccccc2)c(Br)c1 | 101 | 94 | 86 | -38 |
| CC1(C)CC(=O)C2=C(C1)OC(N)=C(C(=O)OC(C)(C)C)C21C(=O)Nc2ccccc21 (stereo not given) | 103 | 110 | 80 | / |
| CN1C(=C2C(=O)NC(=O)NC2=O)Sc2ccccc21 | 124 | 87 | 88 | -11 |
| OP(=S)(c1ccncc1)c1ccncc1 | / | 85 | 98 | -1 |
| CC(C)c1ccc(C=C2C(=O)NC(=O)NC2=O)cc1 | 32* | 118 | 102 | / |
| CC1CCC(NCCc2ccc3c(c2)OCO3)CC1 (stereo not given) | 104 | 132 | 101 | -20 |
| CC(=O)Nc1ccccc1C(=O)OCc1ccccc1F | 106 | 120 | 104 | -4 |

Next section:
mol	GIV Gai3 FP	Sa growth inh	Sa growth inh second temp	HCMV UL50-53 inh
CN1CCN(C2CC3(C)C(CCC4C3CCC3(C)C(O)C(N5CCN(C)CC5)CC43)CC2O)CC1 (stereo not given)	97	104	93	-15
COc1cccc(-n2c(/C=C/c3ccccc3O)nc3ccccc3c2=O)c1	110	100	89	-50
CC1=CC(=C2C(=O)NC(=O)NC2=O)C=C(C(F)(F)F)N1Cc1ccco1	102	86	82	-68
O=C(Cn1c2ccccc2c(=O)c2ccccc21)Nc1ccc(Cl)cc1C(=O)c1ccccc1	100	/	/	-27
CC(O)C1CCC2C3CCC4=CC(=O)CCC4(C)C3CCC12C (stereo not given)	101	98	81	-12
CCc1ccccc1NC(=O)c1cccn(Cc2ccccc2F)c1=O	104	87	84	/
CCc1nc2ccccc2c(=O)n1-c1cccc(OC)c1	98	108	78	1
N#CC(CCN1CCN(c2ccccc2)CC1)(c1ccccc1)c1ccccc1	/	90	68	-3
COc1ccc(C)cc1NC(=O)N(Cc1ccc2c(c1)OCO2)C1CCN(Cc2ccccc2)CC1	106	113	92	/
NCC(O)c1ccc(O)cc1 (stereo not given)	98	/	/	2&-4&-3&-25
CC(C)(C)NP(C)(=O)C(C)(C)C (stereo not given)	102	103	102	-5
COC(=O)c1ccc(CCl)o1	/	92	83	-24
C[C@]12CCC(=O)C=C1CCC1C2CC[C@@]2(C)C1CC[C@@]2(O)CC#N (stereo not given in full)	/	109	84	-17
Cc1ccc(NC(=O)Cn2cc(C(=O)c3ccccc3)c3ccccc32)cc1	106	93	104	11
O=C(O)CSC(=S)N1CC2CC(C1)c1cccc(=O)n1C2 (stereo not given)	110	96	105	4
N[C@@H](Cc1ccc(N(CCCl)CCCl)cc1)C(=O)O	99	98&99	88&90	-25&-14
O=C1CC(c2ccccc2Br)c2c(c3ccccc3oc2=O)O1 (stereo not given)	91	111	100	/
Cc1ccc2c(c1)C1CN(C)CCC1N2Sc1ccc(Cl)cc1 (stereo not given)	/	-1.3*	-0.4*	2
Nc1c(C(=O)Nc2ccc(OC(F)(F)F)cc2)sc2nc3c(cc12)N1CCC3CC1	110	112	101	12
C=C(C)[C@H]1Cc2c(ccc3c2O[C@@H]2COc4cc(OC)c(OC)cc4[C@@H]2C3=O)O1	106	/	/	-18
CC(C)C1c2cccn2-c2ccccc2CN1C(=O)Nc1ccccc1Br (stereo not given)	110	/	/	-11
CCOC(=O)Cc1ccc(NC(=O)N2Cc3ccccc3-n3cccc3C2CC)cc1 (stereo not given)	102	/	/	-32
C[N+]1(C)CCOC(O)(c2ccc(-c3ccc(C4(O)C[N+](C)(C)CCO4)cc3)cc2)C1 (stereo not given)	101	/	/	-12&-11
O=c1[nH]c(O)c(C=Nc2ccc(F)c(Cl)c2)c(=O)[nH]1	/	94	101	6
Cc1cc(NC(=O)c2cccn(Cc3cccc(Cl)c3)c2=O)no1	101	85	87	/
O=c1[nH]c(CN2CC=C(c3ccccc3)CC2)nc2ccccc12	/	115	71	-41
CCOc1ccc(NC(=O)c2cccn(Cc3cccc(Cl)c3)c2=O)cc1	101	83	89	/
n1onc2c1NC1Nc3nonc3NC1N2 (stereo not given)	112	120	103	-6
O=C(Nc1ccccc1)Oc1ccccc1	/	73	70	-5
CCCC12CN3CC(C)(CN(C1)C3c1c(C)[nH]c(=O)[nH]c1=O)C2=O (stereo not given)	98&100	88	89	-15&-22
CCN(C)CCc1c[nH]c2ccc(OC)cc12	104	87	89	-8
C#CCOc1ccc2c(c1)c(C(=O)OCC)c(C)n2CCCC	109	/	/	6
CCOc1ccc(CN(CCc2ccc3c(c2)OCO3)Cc2ccccc2)cc1	105	114	86	/
Cc1nnc(NC(=O)c2cccn(Cc3ccc(Cl)cc3)c2=O)s1	97&107	95	82	/
CCC1C(C#N)=C(N)Oc2c1c(=O)oc1ccccc21 (stereo not given)	106	106	92	1
Clc1ccc2c(N3CCNCC3)ccnc2c1	106	92	77	-7
CCn1c(=O)cc(OCC(=O)N2CCC3(CC2)OCCO3)c2ccccc21	101	94	84	-23
CCN(CC)C(=O)CN1CCCN(Cc2ccc(F)cc2)S1(=O)=O	101	89	90	-10
O=C(CCC(=O)N1CC2CC(C1)c1cccc(=O)n1C2)N1CCCCCC1 (stereo not given)	102	79	85	-20

In the list so far, these contain fluorine.
mol	GIV Gai3 FP	Sa growth inh	Sa growth inh second temp	HCMV UL50-53 inh
CN1CCN(c2cc(Cl)c(C#N)cc2F)CC1	102	100	93	-13
FC(F)(F)c1ccc(NC2=NCCCS2)cc1	102	100	99	-4
CCSCc1cc(OC(=O)N(C)C)nc(-c2ccc(C(F)(F)F)cc2)n1	99	110	79	0
OC(CNC1CCCC1)C(F)(F)F (stereo not given)	96	/	/	-12
CN1CCSC1=Nc1ccc(OC(F)F)cc1	/	83	88	-6
CC(=O)Nc1ccccc1C(=O)OCc1ccccc1F	106	120	104	-4
CC1=CC(=C2C(=O)NC(=O)NC2=O)C=C(C(F)(F)F)N1Cc1ccco1	102	86	82	-68
CCc1ccccc1NC(=O)c1cccn(Cc2ccccc2F)c1=O	104	87	84	/
Nc1c(C(=O)Nc2ccc(OC(F)(F)F)cc2)sc2nc3c(cc12)N1CCC3CC1	110	112	101	12
O=c1[nH]c(O)c(C=Nc2ccc(F)c(Cl)c2)c(=O)[nH]1	/	94	101	6
CCN(CC)C(=O)CN1CCCN(Cc2ccc(F)cc2)S1(=O)=O	101	89	90	-10
